# Bioassay records: PubChem, National Center for Advancing Translational Sciences (NCATS)
# PINK1 expr mod: PINK1 expression modulation; PINK1 immunofluorescence, high-content cytometry, 24 h; Potency, µM (titrated, usually from 76.6 µM), for inactives: at the top dose activation (PINK1 increase), hits mostly activators; 410,000 tested, 0.2% active; AID 624263; active = well fitted activation curve with a large enough effect; inconclusive = small, poorly fitted or top-dose-only effect; inactive = flat fitted curve, though single readings scatter; cell line not stated here;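 also: potency is read from the fitted curve at half-maximal effect; % of control where 0% means no effect; nearly all actives have a fitted effect of over 65% in size; a mitochondrial uncoupler was the plate control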
#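 Cells are seeded, rested 12 hours, then given compound at five concentrations or DMSO for 24 hours. After fixation, blocking and antibody staining, PINK1 amount and mitochondrial localization are scored; CCCP serves as control.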
# gsp antagonist: gsp mutant antagonism. 340,000 tested, 0.4% active. Potency, µM (doses to about 76.9 µM), for inactives: at the top dose activity change, negative = inhibition, usual class: inhibitors. gsp-mutant cells, cAMP HTRF, 30 min; control for the full effect not named in the record; active = falling curve of any shape with a large fitted effect; inconclusive = falling curve, mostly with a smaller effect; inactive = flat or rising curve; cell line not stated here;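 also: intracellular cAMP measured with PDE inhibitor Ro 20-1724 present during compound exposure; potency is read from the fitted curve at half-maximal effect; % is scaled to controls: 0 for no effect and ±100 for the full control effect; nearly all actives have a fitted effect of over 65% in size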
#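 Cells, 2000/well, grown 16–24 h in DMEM 10% FBS with 0.5 mg/ml G418, then compounds plus […] (300 uM addition stock), 30 min at 37C. cAMP read by HTRF (cAMP-d2 and anti-cAMP antibody-K in lysis buffer) after 30 min RT.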
# gsp ag: agonists of gsp mutant (McCune-Albright syndrome) | gsp mutant cells, cAMP HTRF, 30 min; control for the full effect not named in the record | Potency, µM (doses to about 76.9 µM), without a hit: at the top dose activation (cAMP increase), hits mostly activators | 340,000 tested, 0.13% active | AID 624287; active = well fitted activation curve with a large enough effect; inconclusive = small, poorly fitted or top-dose-only effect, or another doubt; inactive = no such curve, though single readings can be large or run the other way; cell line not stated here;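 also: phosphodiesterase inhibitor Ro 20-1724 added with compounds to block cAMP breakdown; potency is read from the fitted curve at half-maximal effect; nearly all actives have a fitted effect of over 60% in size; about a fifth of the inactives were tested at one dose only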
#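 Cells stably selected in G418 were plated at 2000/well, grown 16-24 hr, then given compounds in DMSO with the PDE inhibitor […] (300 uM solution added) for 30 min at 37C; cAMP was read by HTRF.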
# D2 ag: activates the human D2 dopamine receptor. P14416. DiscoveRx PathHunter D2 beta-arrestin, luminescence, 90 min; 100% = 57 uM dopamine signal. 360,000 tested, 0.084% active. activation, % (no concentration beside the values). AID 624465; in the data active = activation above about 40%; inconclusive = about 15% to 40%; inactive = below about 15%; also: compound concentration not given in the record; the text of the record calls up to 30% inactive
# Target sequence (P14416 whole entry, looked up): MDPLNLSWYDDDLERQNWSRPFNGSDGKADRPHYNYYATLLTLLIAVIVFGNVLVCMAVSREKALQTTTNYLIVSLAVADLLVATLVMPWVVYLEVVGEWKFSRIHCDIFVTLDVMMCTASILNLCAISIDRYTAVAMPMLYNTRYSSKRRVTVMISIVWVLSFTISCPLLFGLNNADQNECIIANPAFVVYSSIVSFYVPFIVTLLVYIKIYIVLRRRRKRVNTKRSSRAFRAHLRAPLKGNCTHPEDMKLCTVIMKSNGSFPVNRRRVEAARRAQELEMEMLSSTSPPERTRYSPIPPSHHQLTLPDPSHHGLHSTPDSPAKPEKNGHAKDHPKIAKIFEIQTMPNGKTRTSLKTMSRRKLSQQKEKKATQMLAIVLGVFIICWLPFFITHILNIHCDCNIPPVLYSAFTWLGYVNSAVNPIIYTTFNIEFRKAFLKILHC
#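 Agonist mode: compounds alone added to overnight-plated D2 PathHunter cells for 90 min at 37 C, with 57 uM final dopamine (EC100) defining full response. Beta-arrestin recruitment detected by chemiluminescent reagent, read after 1 h at ambient temperature.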
# ClpP mod: qHTS Assay for Activators of ClpP; AID 651965, 2013; Potency, µM (top dose mostly 57.5 µM), for the others: at the top dose activity change, negative = active; 340,000 tested, 1.9% active; ATP-dependent Clp protease proteolytic subunit (Bacillus subtilis (strain 168)), P80244; purified B. subtilis ClpP, FRET peptide cleavage, 20 min; active = well fitted falling curve with a large enough effect; inconclusive = small, poorly fitted or top-dose-only effect; inactive = no such curve, though single readings can be large or run the other way; also: potency is read from the fitted curve at half-maximal effect; the source files actives as falling curves though it sought activators and does not explain the sign; nearly all actives have a fitted effect of over 65% in size; many hits overshoot -100%
# Target sequence (P80244 whole entry, looked up): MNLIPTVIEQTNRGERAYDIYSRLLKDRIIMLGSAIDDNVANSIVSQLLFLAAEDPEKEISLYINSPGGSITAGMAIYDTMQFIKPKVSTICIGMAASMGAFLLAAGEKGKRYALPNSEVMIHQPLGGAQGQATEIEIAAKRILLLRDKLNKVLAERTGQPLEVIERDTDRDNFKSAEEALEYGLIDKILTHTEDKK
#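 ClpP 10 microg/mL final, pH 8 Tris/KCl buffer with BSA, glycerol, Tween-20; compound pinned in; FRET-FV substrate; RT 20 min; Ex320/Em430; ΔFRET vs ADEP 5.8 microM, DMSO, no enzyme.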
# Menin-MLL FL inh: inhibitors of human menin-MLL interaction, wild-type MLL peptide | Fluorescence polarization, fluorescein-MLL peptide displacement from menin | FP activity change, % at 61.4 µM | 290,000 tested, under 10 active | AID 1766; inconclusive = falling polarisation curve, or a change in total fluorescence; inactive = total fluorescence flat and polarisation flat or rising; no compound was filed as active; the % refers to the polarisation; negative = inhibition;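 also: % of control where 0% means no effect; inhibitors lower the polarisation; unlabelled MLL peptide was the positive control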
# Sfp PPTase inh: Sfp phosphopantetheinyl transferase inhibition. Q9F4F7. Biochemical Sfp PPTase activity, qHTS. Potency, µM, for the others: max response, negative = inhibition, actives largely listed as inhibitors. 310,000 tested, 3.5% active; active = well fitted inhibition curve with a large enough effect; inconclusive = small, poorly fitted or top-dose-only effect, or another doubt; inactive = no such curve, though single readings can be large or run the other way;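 also: the enzyme is Sfp with the accession as filed and its product quenches rhodamine fluorescence; potency is read from the fitted curve at half-maximal effect; 0% = enzyme reaction without inhibitor and -100% = no enzyme wells; top concentration of the series not given in the record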
#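 Fluorescence-quenching assay: 15 nM Sfp-PPTase preincubated 15 min at room temperature with compound, then 5 uM rhodamine-CoA and 12.5 uM BHQ-2-labelled YbbR peptide added. Fluorescence (ex 525/em 598 nm) read at start and after 30 min; difference gives rate.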
# * marks the source's active call; other numbers are inactive results; ? = inconclusive; / = no result given; & = joins results of further samples; [ ] = dose if it differs, or a comment.
SMILES,PINK1 expr mod,gsp antagonist,gsp ag,D2 ag,ClpP mod,Menin-MLL FL inh,Sfp PPTase inh
CCOc1ccccc1C(=O)NCC(=O)NCCSc1ccc(Br)cc1,?,-2.5%,-36.6%[inhibitor],-1.3,-1.6%,/,/
Cc1c(C(=O)N(Cc2ccccc2Cl)C2CCS(=O)(=O)C2)oc2ccccc12 (stereo unspecified),1.0%,-25.5%,-28.0%,1.1,0.1%,-4.4,5.2%
Cn1c(Cc2ccc(Cl)cc2)nnc1SCC(=O)NC1CC1,-0.2%,10.6%,23.4%,-2.1,1.4%,/,5.8%
Cc1nc2ccccn2c1CN(C)C(=O)C1CCC(=O)N(Cc2cccc(F)c2)C1 (stereo unspecified),-0.9%,-1.9%,?,-7.7,4.3%,/,7.5%
CC1C2CC(C(CN(C)C)/C2=N/O)C1(C)C (stereo unspecified),-14.5%[38.3 µM],14.0%,9.1%,-1.9,-1.0%,5.5,6.7%
O=C(O)c1[nH]c2ccc(Cl)cc2c1CCN1C(=O)c2ccccc2C1=O,-0.3%,-9.0%,0.2%,-2.3,-1.2%,0.1,-27.8%
O=C(Nc1nc2ccsc2c(=O)s1)c1ccco1,0.5%,1.9%,8.3%[15.4 µM],-0.6,/,2.6,?
COc1cccc(C(=O)c2c[nH]c(C(=O)NCc3cccs3)c2)c1,2.2%,25.1%,3.4%,-3.3,-4.7%,-1.2,11.4%
COc1ccc(-c2cc(C(=O)N3CCC3)c3ccccc3n2)cc1OC,0.6%,-14.4%,-5.2%,-3.4,3.16µM*,/,/
O=C1CS/C(=N/N=C/c2cccs2)N1Cc1ccc(F)cc1,3.2%,-14.4%,-40.0%[inhibitor],0.7,1.8%,2.1,-20.1%
Cc1cc(C)nc(NS(=O)(=O)c2ccc(N/C=C\C(=O)c3cccs3)cc2)n1,1.1%,-49.6%,-9.2%[15.4 µM],0.1,/,5.7,-6.6%
CCCn1c(SCC(=O)NC2CCCCC2)nnc1-c1ccccn1,0.4%,-0.4%,12.8%,-3.4,0.9%,-2.5,16.4%
COc1cc(OC)cc(-c2c(C#Cc3ccsc3)c3cc(-c4ccc5cc[nH]c5c4)ccc3n2C)c1,0.6%,8.1%,29.5%,-1.4,4.4%,/,/
COC(=O)CCSCC(=O)Nc1nnc(C)s1,-0.9%,-1.6%,-1.2%,-7.7,-1.1%,0.9,-4.0%
O=c1ccc2ccccc2n1Cc1cccc(F)c1,0.4%,1.1%,-18.4%,-5.0,-10.2%,0.8,-1.4%
O=C(Nc1ccc(N2CCN(C(=O)c3ccc(Cl)cc3)CC2)cc1)c1cccnc1,1.2%,-7.0%,0.0%,-0.4,-2.9%,0.5,5.0%
COc1ccc(OC)c(S(=O)(=O)N(C)CC(=O)N2CCN(c3cccc(Cl)c3)CC2)c1,1.8%,-3.4%,10.7%,-3.5,-1.0%,1.7,-13.7%
CC(CCc1ccccc1)NC(=O)C(=O)NCc1ccccc1 (stereo unspecified),3.1%,16.1%,4.8%,1.2,-6.0%,-2.5,14.7%
CC1CCCCN1S(=O)(=O)c1ccc(C(=O)Nc2nnc(-c3ccco3)o2)cc1 (stereo unspecified),-0.8%,-11.2%,-43.2%[inhibitor],-2.2,-0.8%,-2.1,12.3%
O=C(NNC(=O)c1cnccc1C(F)(F)F)c1cccc(Cl)c1,-0.3%,-23.0%,0.8%,-2.6,/,-2.9,11.0%
CC(=O)O[C@H]1C[C@@]2(O)[C@@H](OC(=O)c3ccccc3)C3[C@@](C)([C@@H](O)C[C@H]4OC[C@@]34OC(C)=O)[C@@H](O)[C@H](OC(C)=O)C(=C1C)C2(C)C (stereo partly specified),7.5%,5.7%,/,-2.9,-1.1%,-0.8,22.2%
Cc1nc(Cl)sc1C(=O)Nc1cccc(Cl)c1C,1.8%,-1.2%,12.9%[15.4 µM],0.2,-1.3%,5.0,7.4%
C=CCOC(=O)C1=C[C@H](c2coc3ccccc3c2=O)C[C@H](OCc2ccc(CO)cc2)O1,0.6%,?,/,0.9,1.4%,7.6,?
CCC(CO)Oc1cc(NC(=O)c2ccc(F)cc2)c2ncn(C(C)C)c2c1 (stereo unspecified),1.0%,-3.0%,-35.5%,-3.3,-1.1%,/,/
CN(c1ccccc1)c1ccc(/C=C(\CCC(=O)O)c2nc3ccccc3s2)cc1[N+](=O)[O-],-2.2%,?,?,-5.8,1.5%,1.5,7.0%
CC(=O)c1ccc2c(c1)OCCOCCOc1ccc(C(C)=O)cc1OCCOCCO2,1.3%,15.5%,-1.6%,5.6,-9.5%,1.0,19.1%
CCOCCCNC(=O)C1CCCN1S(=O)(=O)c1ccc(Cl)cc1 (stereo unspecified),3.0%,15.2%,-1.2%,-3.6,1.9%,1.5,-0.2%
Cc1occc1C(=O)N1CCC2(CCCN(Cc3ccc(F)c(F)c3)C2)C1 (stereo unspecified),2.0%,-11.0%,-1.1%[15.4 µM],1.0,-1.3%,-2.2,2.8%
COc1ccc(C(=O)Nc2ccc(NC(=O)c3cccc(F)c3)cn2)cc1,10.4%,3.7%,-7.4%[15.4 µM],-1.9,/,10.1,6.1%
Cc1ccc(OC(C)C(=O)N(Cc2cccs2)C2CCS(=O)(=O)C2)cc1C (stereo unspecified),-0.8%,1.5%,-1.3%,-1.1,/,-0.5,8.6%
COc1ccc(C(=O)[C@H]2[C@H]3C(=O)N(c4ccc(C)cc4)C(=O)[C@H]3C3C=CC=NN32)cc1 (stereo partly specified),-1.4%,12.8%,-4.3%[15.4 µM],-2.2,/,?,-9.0%
CSc1ccc(S(=O)(=O)NCc2ccc(Cl)cc2)cc1,0.5%[38.3 µM],15.4%,-14.9%,-2.9,-0.6%,4.5,-0.6%
O=C1NCC(=O)N(Cc2ccccc2)/C1=C/c1ccccc1,0.4%,4.9%,?,1.6,/,0.9,17.3%
NNc1nc2ccccc2nc1C(F)(F)F,0.0%,8.1%,-4.7%[15.4 µM],4.2,/,-10.8,-23.7%
O=C(CSc1nc2ccccc2o1)N1c2ccccc2Sc2ccc(C(F)(F)F)cc21,4.0%,-1.2%,13.9%,0.0,-2.6%,-0.1,1.3%
O=C(Cc1ccc(Cl)c(Cl)c1)OCC(=O)c1ccc[nH]1,5.8%,21.5%,-45.7%[inhibitor],-3.9,-0.2%,5.6,-2.8%
CN1CCN(c2ncnc3sc(-c4ccccc4)cc23)CC1,-1.3%,7.7%,22.4%,-2.5,-20.5%,3.1,-5.3%
NC(=O)c1ccc(NC(=O)CCCN2C(=O)c3ccccc3C2=O)cc1,8.6%,4.0%,0.0%,-2.3,-3.1%,0.4,10.7%
CN(C)C(=O)C1CCC(=O)N1Cc1cccs1 (stereo unspecified),-2.4%,-0.6%,-29.0%,-4.5,-1.5%,-2.2,1.1%
Cc1ccc(CCNC(=O)CN(C)S(=O)(=O)c2ccc3c(c2)n(C)c(=O)c(=O)n3C)cc1,0.4%,-1.3%,?,-5.5,-19.5%,4.4,6.7%
O=C(Nc1cccc(S(=O)(=O)N2CCCCC2)c1)c1ccccn1,0.9%,-18.5%,22.6%[15.4 µM],5.0,/,1.7,1.8%
Cc1cc(C)cc(OCc2nc3ncc(Br)cc3[nH]2)c1,14.2%,11.3%,9.8%,-1.4,-1.6%,/,/
NC(=O)COC(=O)C1c2ccccc2Oc2ccccc21,0.9%,6.1%,-2.6%,-4.7,/,-0.9,10.6%
CCN(CC)C(=O)Oc1cc(=O)n2c3c(cccc13)CCC2,3.0%,9.6%,21.8%,-3.6,-23.3%,-3.8,2.2%
CCCCCC1C(=O)C[C@@H]2CCN3C(=O)CCC[C@H]1[C@H]23 (stereo partly specified),-1.4%,-4.8%,/,-1.2,-2.3%,1.1[94.6 µM],24.8%
CCOC(=O)c1cc2occc2n1CC(=O)N1CCOCC1,2.6%[38.3 µM],-2.6%,-69.3%[inhibitor],-1.5,0.0%,-1.1,-5.3%
COc1ccc(S(=O)(=O)N2CCCOC2CNC(=O)C(=O)NCc2cccnc2)cc1 (stereo unspecified),-2.1%,0.1%,-27.8%,-1.2,-0.8%,/,19.3%
CCN(CC)C(=O)COc1ccc(CC(=O)O)cc1OC,0.7%,-0.5%,-17.2%,-1.5,-4.2%,-1.1,7.0%
Cc1ccc(/C(N)=N/OC(=O)CSc2ccccc2)cc1,1.6%,16.0%,-8.8%[15.4 µM],3.8,/,-1.1,-17.5%
CC1(C)CC(=O)C2=C(C1)N=C1c3ccccc3C(=O)C1C2c1ccc(Cl)cc1 (stereo unspecified),?,?,-27.4%,-6.7,2.0%,-7.2,-27.3%
Cc1ccc(CN2CC(C(=O)Nc3nc(C)cs3)CC2=O)cc1 (stereo unspecified),1.3%,/,-31.8%[inhibitor],1.6,3.0%,/,/
COc1cc(C(=O)Nc2cccc(S(=O)(=O)N3CCCC3)c2)cc(OC)c1C,1.9%,-22.6%,-12.5%,-3.8,3.5%,3.6,-17.2%
CCOc1cccc(C2C(C(=O)c3ccc(C)o3)=C(O)C(=O)N2Cc2ccncc2)c1 (stereo unspecified),3.3%,15.3%,?,-0.4,-3.6%,0.8,?
CCc1ccc(NC(=O)CSc2nc(=O)n(CCCN(C)C)c3c2CCC3)cc1,-1.3%,6.5%,-18.2%,-3.0,-2.3%,/,/
COCC(C)NC(=O)C(C)N1c2cccc3cccc(c23)S1(=O)=O (stereo unspecified),-1.3%,-9.1%,-2.1%[15.4 µM],-0.1,0.2%,-1.2,-3.8%
CCc1ccc(CNC(=O)C2CCC(=O)N2C2CCCCC2)cc1 (stereo unspecified),1.2%[38.3 µM],4.4%,?,0.9,0.1%,4.2,15.6%
CN1CCCN(S(=O)(=O)c2ccc3c(c2)OCCO3)CC1,-0.2%&1.0%,7.6%,-36.1%[inhibitor],-4.1,-1.6%&0.9%,0.5,22.3%
COc1ccccc1Oc1coc2cc(OC(=O)N3CCOCC3)ccc2c1=O,-18.1%[38.3 µM],9.3%,6.4%,-0.6,0.2%,0.3,15.1%
C=CCOC(=O)C1=C[C@@H](c2csc3ccccc23)C[C@@H](OCc2ccc(CO)cc2)O1,8.0%,-26.1%,-3.1%,2.4,1.0%,15.3,-14.2%
CC(=O)Nc1ccc(S[C@@H](CCN2CC[C@H](O)CCC2=O)c2ccccc2)cc1,0.5%,50.1µM*,5.7%,-4.6,-0.6%&-1.6%,/,/
